Compound activity: PubChem, National Center for Advancing Translational Sciences (NCATS)
RE007 growth inh: qHTS Assay for Inhibitors of the HIV-1 protein Vpr | S. pombe RE007 Vpr strain, BacTiter-Glo ATP luminescence, 24 h; control for the full effect not named in the record | 0.21% of 360,000 active | AID 651644, 2012 | Potency, µM (top dose mostly 92.2 µM), for the others: top-dose activity change, negative = less growth; active = well fitted falling curve with a large enough effect; inconclusive = small, poorly fitted or top-dose-only effect; inactive = no such curve, though single readings can be large or run the other way;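 further: on the % scale 0 is the no-effect control and ±100 the full control effect; nearly all actives have a fitted effect of over 50% in size; the assay follows cell death caused by Vpr and the record does not say whether a fall means rescue or toxicity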
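Fission yeast RE007 carrying one integrated HIV-1 vpr copy, seeded at OD 0.01 in PMG+AL medium with 23 nL pinned compound. Grown 24 h at 30 degrees; viability read by BacTiter-Glo luminescence after 5 min.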
LASV entry inh: qHTS for Inhibitors of binding or entry into cells for Lassa Virus; AID 540256, 2011; 1.2% of 300,000 active; Potency, µM (titrated, usually from 37.9 µM), without a hit: at the highest dose activity change, negative = inhibition, actives largely listed as inhibitors; Lassa virus pseudotype entry inhibition, cell reporter; control for the full effect not named in the record; active means well fitted inhibition curve with a large enough effect; inconclusive means small, poorly fitted or top-dose-only effect, or effect the other way; inactive means flat fitted curve, though single readings scatter; tested in HEK293 cells; further: on the % scale 0 is the no-effect control and ±100 the full control effect; nearly all actives have a fitted effect of over 50% in size; luciferase read-out
Cruzain inh noDet: qHTS Assay for Promiscuous and Specific Inhibitors of Cruzain (without detergent) | Cruzipain (Trypanosoma cruzi), P25779 | purified cruzain, Z-FR-AMC fluorescence, no detergent | Potency, µM, inactives show max response, negative = inhibition, actives largely listed as inhibitors | 2.3% of 200,000 active | AID 1476, 2009; active means well fitted curve in the direction sought with a large enough effect; inconclusive means small, poorly fitted or top-dose-only effect, or another doubt; inactive means no such curve, though single readings can be large; an effect the other way counts as inactive or inconclusive;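 further: plate controls were enzyme without inhibitor for no effect and buffer without enzyme for full effect; nearly all actives have a fitted effect of over 40% in size; top concentration of the series not given in the record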
Target sequence (P25779 123-467 limits assumed): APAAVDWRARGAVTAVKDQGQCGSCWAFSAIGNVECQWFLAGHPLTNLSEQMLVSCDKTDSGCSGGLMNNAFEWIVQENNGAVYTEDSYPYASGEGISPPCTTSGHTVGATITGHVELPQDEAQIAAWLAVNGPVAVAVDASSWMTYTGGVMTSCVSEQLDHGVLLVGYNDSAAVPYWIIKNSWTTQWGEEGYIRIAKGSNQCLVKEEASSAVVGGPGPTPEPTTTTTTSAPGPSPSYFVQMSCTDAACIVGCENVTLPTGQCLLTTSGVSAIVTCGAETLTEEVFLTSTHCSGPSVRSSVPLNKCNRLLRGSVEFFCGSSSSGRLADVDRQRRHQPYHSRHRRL
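Detergent-free condition (0.00005% Triton X-100) in acetate buffer pH 5.5 with DTT. 1.5 nM enzyme and compound were pre-mixed 15 min, then 2 uM Z-FR-AMC substrate added; reaction progress from fluorescence change between first and third reads (60 s).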
StopGo reporter: High Throughput Screening for Foot and Mouth Disease Virus Antivirals. Potency, µM (top dose mostly 57.9 µM), without a hit: at the highest dose signal change, negative = less light. AID 1159524, 2015. 1.2% of 410,000 active. human cells with a luciferase reporter of 2A StopGo recoding; control for the full effect not named in the record; active = well fitted falling curve with a large enough effect; inconclusive = small, poorly fitted or top-dose-only effect; inactive = no such curve, though single readings can be large or run the other way; tested in HEK293T cells; further: on the % scale 0 is the no-effect control and ±100 the full control effect; nearly all actives have a fitted effect of over 45% in size; luciferase light after 4 h
SARS PLpro yeast: qHTS of Yeast-based Assay for SARS-CoV PLP. S. cerevisiae expressing SARS-CoV PLpro, growth rescue; control for the full effect not named in the record. Potency, µM (titrated, usually from 32.9 µM), without a hit: at the highest dose activity, positive = growth rescue. 0.19% of 330,000 active; further: 0% is about no effect; nearly all actives have a fitted effect of over 55% in size; growth read by luminescence after 48 h
NS1 inh: qHTS Assay for Inhibitors of Influenza NS1 Protein Function | Potency, µM (top dose mostly 46.1 µM), without a hit: at the highest dose activity, positive = more growth | 0.4% of 270,000 active | S. cerevisiae slowed by influenza A NS1, growth recovery by OD600; further: actives are rising curves; nearly all actives have a fitted effect of over 50% in size
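S. cerevisiae expressing influenza A NS1, grown in glucose, washed, then diluted 1:100 into pH 6.0 -URA galactose medium with 23 nl compound. Growth recovery read as OD600; NS1-free strain serves as control.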
Marburg entry inh: qHTS for inhibitors of binding or entry into cells for Marburg Virus; 1.8% of 300,000 active; AID 540276, 2011; Marburg virus pseudotyped entry inhibition, cell reporter; control for the full effect not named in the record; about a third of the inactives were read at about 46 µM; Potency, µM (highest dose often 37.8 µM), for inactives: at the highest dose activity change, negative = inhibition, actives largely listed as inhibitors; active = well fitted inhibition curve with a large enough effect; inconclusive = small, poorly fitted or top-dose-only effect, or effect the other way; inactive = flat fitted curve, though single readings scatter; tested in HEK293 cells; about a fifth of its hits are not listed in these tables; further: on the % scale 0 is the no-effect control and ±100 the full control effect; luciferase read-out
Cruzain inh Det: qHTS Assay for Promiscuous and Specific Inhibitors of Cruzain (with detergent); Cruzipain (Trypanosoma cruzi), P25779; purified cruzain, Z-FR-AMC fluorescence, 0.01% Triton; Potency, µM, inactives show max response, negative = inhibition, usual class: inhibitors; 0.43% of 200,000 active; AID 1478, 2009; active means well fitted curve in the direction sought with a large enough effect; inconclusive means small, poorly fitted or top-dose-only effect, or another doubt; inactive means no such curve, though single readings can be large; an effect the other way counts as inactive or inconclusive;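 further: plate controls were neutral wells for no effect and buffer without enzyme for full effect; nearly all actives have a fitted effect of over 40% in size; top concentration of the series not given in the record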
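Cruzain (1.5 nM) preincubated 15 min at RT with compound in 100 mM sodium acetate pH 5.5, 5 mM DTT, 0.01% Triton X-100. Reaction started with 2 uM Z-FR-AMC; AMC fluorescence (ex 360/em 450 nm) change over 60 s gave rate.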
An asterisk follows results filed as active; ? = inconclusive; . = no result given; & = joins results of further samples; [ ] = remark or other dose. Unless noted, the call rests on the fitted dose curve; in most records, active means well fitted rising curve with a large enough effect; inconclusive means small, poorly fitted or top-dose-only effect; inactive means no such curve, though single readings can be large or run the other way. Potency means the concentration at half of the fitted maximal effect.

nr | molecule | SARS PLpro yeast | LASV entry inh | StopGo reporter | Cruzain inh noDet | Marburg entry inh | RE007 growth inh | Cruzain inh Det | NS1 inh
1 | CC(=O)c1c(C)nc(-c2cccc([N+](=O)[O-])c2)n1O | 6.6% | 7.1% | -12.1% | . | ? | -14.4% | . | -5.7%
2 | CCNC(=S)NNC(=O)CCn1cc(C)cn1 | 5.4% | 5.8% | -22.1% | 13.2% | 1.4% | -8.0% | 0.3% | 14.3%
3 | C=CCN(c1ccccc1)S(=O)(=O)c1cccc(C(=O)Nc2ccc(N3CCOCC3)cc2)c1 | -0.1% | ? | 22.4µM* | . | ? | 6.7% | . | .
4 | Cc1ccc(Cl)cc1N1CCN(Cc2cc3c(cc2O)CCC3)CC1 | -1.9% | 3.0% | 9.1% | 9.1% | 1.3% | -8.7%[3.69 µM] | 4.4% | 7.2%
5 | CCN(CC)CCNC(=O)C(=O)Nc1cc2c3c(c1)CC(=O)N3CCC2 | -1.2% | 2.1%[46.1 µM] | -3.3% | . | -19.9%[46.1 µM] | -16.9% | . | -11.2%
6 | C/C(=N\O)c1ccc2c3c([nH]c2c1)CCCC3 | -9.1% | 12.3% | 24.1% | -13.5% | -2.1% | -22.6% | -21.5% | -93.4%
7 | COc1ccc(-c2cc(C(=O)OC3CCOC3=O)c3ccccc3n2)cc1 (stereo not given) | -25.7% | -5.1% | 29.8% | 12.3% | -1.7% | -29.3% | -15.3% | -0.8%
8 | COc1ccc(CCNC(=O)[C@H](C)NC(=O)N2CCn3c2nc2ccccc23)cc1OC | 0.8% | 1.5%[46.1 µM] | -6.1% | . | -12.3%[46.1 µM] | 3.0% | . | -7.7%
9 | COC(=O)c1cc2occc2n1Cc1nc(-c2ccccc2Cl)oc1C | -4.0% | 0.7% | -22.9% | 4.1% | 3.8% | 4.0% | 0.5% | 5.9%
10 | Cc1c(Nc2nc3ccccc3nc2NS(=O)(=O)c2ccccc2)c(=O)n(-c2ccccc2)n1C | 17.5% | -5.1% | . | -7.5% | 14.2% | 2.9% | -4.0% | 6.0%
11 | CCOc1cc(/C=C2/C(=N)N3C=CSC3=NC2=O)ccc1OCCCOc1ccccc1C | -9.6% | . | -19.5% | -21.0% | . | 16.9% | -2.8% | 0.2%
12 | N#CCSc1nc2c(c(=O)n1Cc1ccccc1)C1(CCCC1)Cc1ccccc1-2 | -9.4% | -23.9% | ? | 12.6µM* | ? | 3.1% | -1.4% | ?
13 | O=C(C1CCC(=O)N(C2CC2)C1)N1CCN(c2ccc(Cl)cc2)CC1 (stereo not given) | -3.4% | . | -10.3% | . | . | 1.5% | . | 8.2%
14 | O=C(CSCc1ccc(Cl)cc1Cl)Nc1ccccc1C(=O)Nc1ccc(C(=O)O)cc1 | -1.2% | -2.5%[46.1 µM] | 13.9% | . | ? | -1.1% | . | 0.7%
15 | NS(=O)(=O)c1ccc(NC(=O)CN2CCCN(S(=O)(=O)c3ccc(F)cc3)CC2)cc1 | 7.3% | -2.0% | -8.6% | . | 0.4%[46.1 µM] | 15.5% | . | .
16 | Nc1nnn(CC(=O)N/N=C/c2cccc3ccccc23)n1 | -12.6% | 4.1% | ? | 0.0% | ? | -10.2% | -1.0% | -5.2%
17 | NC(=O)C1(N2CCCCC2)CCN(C(=O)NC23CC4CC(CC(C4)C2)C3)CC1 | 2.3% | -1.6% | ? | 1.4% | 3.9% | 1.1% | 1.6% | 1.2%
18 | COc1cccc(C(=O)Nc2cc3c4c(c2)CC(=O)N4CCC3)c1 | -4.7% | 0.8% | 17.4% | . | 3.0% | -4.9% | . | .
19 | CCOC(=O)c1c(C)n(C(C)C)c2ccc(OC)cc12 | -2.7% | -1.5% | 10.2% | . | 0.9% | 6.1% | . | -1.4%
20 | COc1ccc(OC)c(NC(=S)N2CCc3ccccc3C2)c1 | -0.3% | . | 43.6%[activator] | . | . | -8.6% | . | -8.9%
21 | CC(C)c1onc(C(=O)NCc2ccc(Cl)cc2)c1[N+](=O)[O-] | -22.6% | -13.7% | -6.7% | -11.8% | -2.9% | 21.5% | -4.7% | -4.1%
22 | COc1ccc(-c2cc(C(=O)NCCCn3ccnc3)c3ccccc3n2)c(OC)c1 | -2.3% | -5.4% | -2.0% | . | 1.0%[46.1 µM] | 11.1% | . | -7.9%
23 | COc1cc(Cl)c(C)cc1NC(=O)Cn1cc(S(=O)(=O)N2CCN(c3ccccc3F)CC2)c2ccccc2c1=O | . | 7.1%[46.1 µM] | -6.0% | -25.7% | 8.1%[46.1 µM] | . | -2.7% | .
24 | CSCCC(NC(=O)c1ccccc1)C(=O)NC1CC1 (stereo not given) | 15.0% | 0.2% | 4.9% | -6.8% | ? | -6.9% | -0.7% | 17.3%
25 | COCCCNC(=O)c1nc2c(nnn2Cc2cc(C)ccc2C)c(=O)[nH]1 | 22.7% | 2.0% | . | -4.7% | -7.0% | -9.9% | -0.6% | -7.6%
26 | COC(=O)c1ccccc1NC(=O)CN1CCN(C23CC4CC(CC(C4)C2)C3)CC1 | 0.9% | ? | -14.7% | -9.7% | 5.8µM* | -10.6% | -3.8% | 0.5%
27 | CCOC(=O)N1CCC2(CC1)NCCc1c2[nH]c2ccccc12 | -0.3% | -22.8%[46.1 µM] | -11.6% | . | ? | 0.5% | . | -1.6%
28 | O=C(CNCCC1=CCCCC1)Nc1ccc(N2CCCCCC2)cc1 | -8.4% | ? | 40.3%[activator] | 8.2% | ? | 3.5% | -1.4% | -11.4%
29 | CC1=CC(C)CC(C)OC(=O)CC(c2ccc(O)cc2)NC(=O)C(Cc2c(Br)[nH]c3ccccc23)N(C)C(=O)C(C)NC(=O)C(C)C1 (stereo not given) | . | 0.398µM* | -26.9% | . | 0.316µM* | 9.0% | . | .
30 | COc1ccccc1NC(=O)c1ccccc1NC(=O)c1cccs1 | -1.5% | -8.3%[46.1 µM] | 10.2% | . | ? | 1.4% | . | 1.2%
31 | CC(Nc1nc(N2CCCCC2)nc2ccccc12)c1ccccc1 (stereo not given) | 3.6% | ? | ? | -6.8% | ? | -11.4%[3.69 µM] | -0.7% | -32.5%
32 | CC(C)c1nc(N2CCOCC2)c(C#N)c2c1CCCC2 | -36.3% | -29.5% | ? | 11.3% | ? | -7.4% | -2.8% | -145.0%
33 | CCc1cc(C(c2ccccc2OC)N2CCOCC2)c(NC(=O)c2ccccc2)s1 (stereo not given) | -6.1% | ? | ? | -12.7% | 19.4% | 0.2% | -8.0% | 7.9%
34 | CSc1ccccc1C(=O)NCc1ccc(F)cc1 | 0.3% | . | 4.3% | . | . | 1.6% | . | 3.2%
35 | CCOC(=O)c1ccc(NC(=O)CC2NCCNC2=O)cc1 (stereo not given) | 2.7% | ? | 9.2%&31.0% | 0.2%&-4.2% | 23.2%[46.1 µM] | 7.1% | -2.2%&2.6% | 0.5%
36 | O=C(Nc1ccccc1)N1CCC(C(=O)N2CCN(c3ccccc3F)CC2)CC1 | -1.6% | 3.7%[46.1 µM] | -3.6% | . | ? | 6.8% | . | .
37 | CC/C(=N\NC(=O)c1ccoc1C)c1ccc(C)o1 | -6.2% | ? | 29.9% | 0.4% | ? | -23.5% | -4.8% | 5.9%
38 | O=C(CN1C(=O)/C(=C/c2cccc(Cl)c2)SC1=S)NC1C=CS(=O)(=O)C1 (stereo not given) | 1.3% | ? | -22.8% | . | ? | 9.8% | . | 6.3%
39 | Cc1ccc(-n2c(=S)sc3c(=O)n(-c4ccccc4F)c(SCC(=O)O)nc32)cc1C | 1.6% | . | -2.0% | . | . | -4.6% | . | 13.9%
40 | COC(=O)c1ccc2nc(C)cc(Nc3cccc(Cl)c3C)c2c1 | . | -16.9%[46.1 µM] | ? | -3.9% | ? | . | -7.0% | .
41 | CN1C(=O)C(O)(CC(=O)c2ccc3c(c2)OCO3)c2ccccc21 (stereo not given) | -1.8% | 7.7% | 16.7% | -15.6% | -3.5% | 4.8% | 5.4% | 5.7%
42 | Cc1cc(C)cc(NC(=O)Nc2ccc3ccccc3n2)c1 | 0.9% | 13.5% | 10.7% | . | -2.9%[46.1 µM] | 0.7% | . | -5.0%
43 | CCOc1ccc(S(=O)(=O)N2CCN(Cc3ccccc3)CC2)cc1 | 2.4% | ? | -13.9% | . | ? | 9.4% | . | -14.1%
44 | COc1cc(OC)c(NC(C)C(=O)N2CCCC2)cc1Cl (stereo not given) | -9.6% | 14.2%[46.1 µM] | -11.8% | . | -2.0%[46.1 µM] | 11.4% | . | .
45 | CCCCOc1ccccc1C1NC(=O)NC(C)=C1C(=O)OCc1ccco1 (stereo not given) | -0.4% | ? | . | -5.9% | -6.3% | 0.8% | -1.1% | 12.4%
46 | CCC/C(=N\NC(=O)c1ccccc1C)c1ccccc1 | 9.4% | ? | 7.9% | 7.0% | 6.0% | -11.9% | -0.1% | 28.0%
47 | CCOc1ccccc1OCCC(=O)Nc1ccc(F)c(Cl)c1 | -0.1% | -1.2% | -3.7% | -25.1% | ? | 3.9% | -8.2% | -10.4%
48 | N#CC1=C(SCc2ccccc2)NC(=O)CC1c1ccccc1 (stereo not given) | 29.7% | -19.2% | -10.1% | -11.9% | ? | -0.5% | -3.7% | -4.7%
49 | O=C(N/N=C/c1ccc([N+](=O)[O-])s1)C(O)c1ccccc1 (stereo not given) | -44.8% | ? | 43.2%[activator] | 0.6% | -11.3% | -8.5% | -11.4% | -38.5%
50 | CCN1CCN(C(=O)C(=O)c2cn(CC(=O)N3CCCC3)c3ccccc23)CC1 | -4.7% | 14.0% | -8.3% | . | 28.6% | 1.8% | . | 3.3%
51 | CN(C)c1ccc(/C=N/NC(=O)C(=O)N2CCCCCC2)cc1 | 15.2% | 3.0%[46.1 µM] | 65.9%[activator] | . | ? | -12.9% | . | 7.3%
